High-throughput results from PubChem.
miR-21 FLuc – qHTS Assay for Modulators of miRNAs and/orActivators of miR-21 | AID 2288, 2010 | Potency, µM (top dose mostly 38.3 µM), inactives show at the top dose reporter change, positive = more light | 340,000 tested, under 10 active | HeLa miR-21 FLuc reporter, luciferase, 48 h; active = well fitted rising curve with a large enough effect; inconclusive = small, poorly fitted or top-dose-only effect; inactive = no such curve, though single readings can be large or run the other way;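 note: % of control where 0% means no effect; miR-21 action dims this reporter so a rising signal means less miR-21 action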
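Luminescence from a firefly luciferase reporter carrying a miR-21 binding site downstream, stably expressed under a CMV promoter in HeLa cells that make miR-21 endogenously, reports miRNA modulation after 48 h compound exposure up to approximately 40uM final.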
Rango-impB inh – qHTS Assay for Inhibitors of Rango (Ran-regulated importin-beta cargo) - Importin beta complex formation; 0.031% of 340,000 active; AID 540263, 2011; Rango CFP/YFP FRET sensor + importin beta, 45 min; Importin subunit beta-1 (Homo sapiens), Q14974; Potency, µM (titrated, usually from 92.2 µM), without a hit: at the highest dose inhibition of complex formation; active = rising FRET ratio curve, often small or poorly fitted; inconclusive = mostly compound fluorescence or quenching in the first reads; inactive = flat curves in all reads;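 note: potency is the fitted concentration of half-maximal effect; 0% = DMSO wells and 100% = buffer wells lacking importin beta; nearly all actives have a fitted effect of over 15% in size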
Target sequence (Q14974 whole entry, looked up): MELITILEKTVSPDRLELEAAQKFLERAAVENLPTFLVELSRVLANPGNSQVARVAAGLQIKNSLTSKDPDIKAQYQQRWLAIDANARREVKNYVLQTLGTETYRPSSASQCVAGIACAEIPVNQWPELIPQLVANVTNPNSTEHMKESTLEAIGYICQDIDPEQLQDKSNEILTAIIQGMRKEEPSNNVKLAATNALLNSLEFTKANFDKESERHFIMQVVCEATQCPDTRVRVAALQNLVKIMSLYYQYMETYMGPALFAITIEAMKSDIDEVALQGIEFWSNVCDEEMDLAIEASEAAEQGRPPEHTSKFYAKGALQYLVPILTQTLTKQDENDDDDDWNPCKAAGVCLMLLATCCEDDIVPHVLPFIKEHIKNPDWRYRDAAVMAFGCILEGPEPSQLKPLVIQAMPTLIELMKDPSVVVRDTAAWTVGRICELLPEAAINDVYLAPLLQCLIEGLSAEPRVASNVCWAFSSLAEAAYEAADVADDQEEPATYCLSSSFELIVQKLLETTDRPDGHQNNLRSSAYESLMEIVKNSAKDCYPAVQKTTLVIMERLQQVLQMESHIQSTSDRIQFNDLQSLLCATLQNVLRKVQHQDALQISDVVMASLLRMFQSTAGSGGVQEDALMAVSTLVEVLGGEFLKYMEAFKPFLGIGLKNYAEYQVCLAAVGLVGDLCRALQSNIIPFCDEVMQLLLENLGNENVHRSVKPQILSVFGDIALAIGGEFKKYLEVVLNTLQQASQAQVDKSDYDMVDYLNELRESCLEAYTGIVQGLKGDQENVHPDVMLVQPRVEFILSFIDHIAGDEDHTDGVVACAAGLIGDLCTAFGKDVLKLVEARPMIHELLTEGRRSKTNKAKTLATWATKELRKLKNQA
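FRET biosensor Rango (snurportin 1 IBB between N-terminal EYFP and C-terminal Cerulean), 50 nM in PBS/1 mM DTT/0.02% Tween-20/0.1% BSA, preincubated 5 min RT with compound; 0.125 microM importin beta added, 45 min RT, CFP/YFP FRET ratio read.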
GLA inh pH 4.5 – qHTS Assay for Inhibitors of Human alpha-Galactosidase at pH 4.5; Alpha-galactosidase A (Homo sapiens), P06280; purified enzyme, 4-MU-alpha-Gal fluorescence, pH 4.5; activity change, negative = inhibition, % at 105 µM; 230,000 tested, under 10 active; inconclusive = small, poorly fitted or top-dose-only inhibition, or a rising curve; inactive = flat fitted curve, though single readings scatter; no compound was filed as active;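 note: 0% = full activity with enzyme and -100% = basal without enzyme; dose as in the result columns while the protocol names 77 µM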
Rango dissoc inh – qHTS Assay for Inhibitors of RanGTP induced Rango (Ran-regulated importin-beta cargo) - Importin beta complex dissociation; Snurportin-1 (Homo sapiens) + GTP-binding nuclear protein Ran (Homo sapiens) + Importin …; AID 540253, 2011; 0.071% of 340,000 active; Biochemical FRET Rango-importin beta, RanGTP-induced dissociation; Potency, µM (doses to about 46.1 µM), for the others: top-dose activity change, negative = inhibition; active means falling FRET ratio curve, often poorly fitted, with flat reads before Ran was added; inconclusive means other falling curves, or compound fluorescence or quenching; inactive means flat or rising ratio curve;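 note: potency is the fitted concentration of half-maximal effect; % of control where 0% means no effect; nearly all actives have a fitted effect of over 45% in size; -100% = wells without RanGTP and RCC1; the record marks most hits as doubtful in a second field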
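Recombinant Rango FRET biosensor (EYFP–snurportin 1 IBB–cerulean CFP10) at 0.1 uM premixed with 0.25 uM importin beta in PBS, 1 mM DTT, 0.02% Tween-20, 0.1% BSA. Compound added 5 min; RanGTP-RCC1 (0.6 uM Ran, 2 mM GTP, 0.2 uM RCC1) then triggers release, read at 45 min.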
Numbers without * were called inactive; ? = inconclusive; . = no result given; & = joins results of further samples. These rows are one share of the data; rates above refer to the full screens.

miR-21 FLuc,Rango-impB inh,GLA inh pH 4.5,Rango dissoc inh,SMILES
1%&2%,4.7%,.,1%,COc1ccc2c(c1)cc1c(=O)n(CC(=O)NCCCOC(C)C)nc(C)n12
-11%,11%,1,7%,C=CCn1c(CCNC(=O)c2ccccc2F)nnc1SCC(=O)Nc1ccc(OC)cc1
-10%,-0.9%,0,8%,CCCCCCCC1CC(CSc2ncn[nH]2)OC1=O (stereo not given)
-3%,-1.4%,6,?,CCN(CC(=O)NC(C)C)Cc1nc2c(Br)cc(Br)cc2c(=O)[nH]1
22%,1.0%,.,-14%,CC(C)N(Cc1nccn1C)C(=O)c1ccc2oc(CCCc3ccccc3)nc2c1
-1%,0.6%,4,-10%,O=C(CNC(=O)c1cccs1)OCC(=O)c1ccccc1Cl
1%,3.6%,15,-4%,O=C1c2ccc(Oc3ccc4c(c3)C(=O)N(CCCO)C4=O)cc2C(=O)N1CCCO
-2%,0.0%,.,-20%,CCCNS(=O)(=O)c1cc2c3c(c1)C(C)C(=O)N3CCC2 (stereo not given)
-1%,4.8%,9,5%,COc1ccc(C(c2sc3nc(C)nn3c2O)N2CCC(C(N)=O)CC2)cc1OC (stereo not given)
-26%,-4.7%,-23,-5%,C(=N\N1CCN(c2ccccc2)CC1)/c1ccccc1
21%,1.7%,-9,11%,CCCCn1c(=N)n(CC(=O)c2ccc(Br)s2)c2ccccc21
-3%,-3.3%,-10,-7%,O=C(C1CCCO1)N1CCN(C(c2ccccc2)c2ccccc2)CC1 (stereo not given)
0%,0.0%,2,13%,CN(C(=O)CSc1nnc(C(F)(F)F)n1N)C1CCS(=O)(=O)C1 (stereo not given)
.,0.7%,.,14%,CC(OC(=O)C(C)Oc1ccccc1)C(=O)Nc1ccc(S(=O)(=O)N2CCCCC2)cc1 (stereo not given)
25%,-1.0%,.,1%,CCOC(=O)C1(CCOc2ccccc2)CCN(Cc2cccc(F)c2)CC1
-5%,?,0,?,N#Cc1c(Nc2cccc(F)c2)sc2c(O)cc(=O)[nH]c12
0%,0.2%,2,23%,Cc1ccc(-c2nnn(CC(=O)Nc3nnc(C(C)C)s3)n2)cc1
-24%,-0.9%,.,-13%,COc1cccc(NC(=S)NCc2ccccc2)c1
1%,1.4%,-3,-18%,O=C(N/N=C/c1ccco1)c1ccncc1
-1%,-5.2%,1,13%,Cn1nc(-c2ccccc2)c(-c2nc(-c3cccc(C(F)(F)F)c3)no2)c1Cl

Some of these compounds in order of count of non-hydrogen atoms, smallest number first:
miR-21 FLuc,Rango-impB inh,GLA inh pH 4.5,Rango dissoc inh,SMILES
-24%,-0.9%,.,-13%,COc1cccc(NC(=S)NCc2ccccc2)c1
0%,0.2%,2,23%,Cc1ccc(-c2nnn(CC(=O)Nc3nnc(C(C)C)s3)n2)cc1
1%,3.6%,15,-4%,O=C1c2ccc(Oc3ccc4c(c3)C(=O)N(CCCO)C4=O)cc2C(=O)N1CCCO

Following part:
miR-21 FLuc,Rango-impB inh,GLA inh pH 4.5,Rango dissoc inh,SMILES
-43%,2.5%,5,-11%,Cc1cnc(C(=O)Nc2nnc(C3CC3)s2)cn1
4%,-0.1%,-8,4%,COc1ccc(OCC(O)CNC(=O)Nc2ccc(C(C)(C)C)cc2)cc1 (stereo not given)
-3%,-2.9%,1,9%,CCc1ccc(NC(=O)C(C)n2nc(C)c([N+](=O)[O-])c2C)cc1 (stereo not given)
-101%,-6.0%,5,1%,COc1ccc(-c2nnc3c4ccccc4c(C)nn23)cc1
.,-0.8%,.,0%,Cc1ccccc1OCC(=O)Nc1ccccc1C(=O)NC1CC1
3%,-8.5%,-10,27%,COc1ccc(CCNC(=O)CSc2nnc(CNc3ccc(Cl)cc3)o2)cc1OC
-3%,4.3%,-4,20%,NC(=O)c1nnn(-c2ccccc2)c1N
-21%,-0.4%,-6,-8%,CC1(C)Oc2ccc(NC(=O)C3COc4ccccc4O3)cc2O1 (stereo not given)
3%,-2.2%,-3,4%,O=C(CSc1nc2c(cnn2-c2ccccc2)c(=O)[nH]1)N1CCCCC1
.,1.2%,.,20%,COc1ccc(NS(=O)(=O)c2cccc(C(=O)NN=C(C)c3ccco3)c2)cc1
11%,0.4%,-1,21%,CCOC(=O)N1CCN(C(=O)CN(c2ccc(Oc3ccccc3)cc2)S(C)(=O)=O)CC1
0%,-0.3%,-9,1%,O=C(CNC(=O)/C(=C\c1ccc(F)cc1)NC(=O)c1ccccc1)OCc1ccccc1
-1%,-6.7%,4,-15%,CCC(CC)NC(=O)COC(=O)CCC(=O)c1ccc(Cl)cc1
21%,-2.3%,6,33%,O=C(CCl)Nc1ccccc1Sc1ccccc1
-3%,0.8%,-4,6%,CN(C)N1C(N)=C(C#N)C(c2ccsc2)C2=C1CCCC2=O (stereo not given)
.,-0.1%,.,12%,CC(Sc1nc(N)cc(N)n1)C(=O)NCCC1=CCCCC1 (stereo not given)
-4%,1.2%,-8,4%,O=C(C1c2ccccc2C(=O)N2CCc3ccccc3C12)N1CCN(Cc2ccccc2)CC1 (stereo not given)
3%,0.4%,-21,-9%,Cc1nc(=O)c(-c2ccccc2)c(C)n1CCO
-1%,-2.9%,5,1%,COc1ccc(NC(=O)CCC(=O)OCc2ccc(C(=O)Oc3ccc(Cl)cc3)cc2)cc1
11%,-1.3%,4,-5%,Cc1ccc(/C=C2/NC(=O)N(Cc3ccccc3F)C2=O)o1
-31%,-5.4%,-13,14%,O=C(OCC(=O)c1cccs1)c1ccccc1
.,8.0%,.,-14%,Cc1cccc(C(=O)OCC(=O)N2CCc3ccccc3C2)c1O
16%,-3.4%,-11,4%,CCOC(=O)C1Cn2c(nc3c(c2=O)C(C)(CC)Cc2ccccc2-3)S1 (stereo not given)
0%,2.2%,-9,28%,CCc1cc(C(=O)c2ccccc2OC)c(N)s1
6%&-1%,3.8%,.,-15%,Cc1cc(-c2ccc(C)c(S(=O)(=O)NCCc3ccc(S(N)(=O)=O)cc3)c2)on1
-5%,-2.5%,-8,10%,N=c1sccn1CC(=O)Nc1cccc(Oc2ccccc2)c1
3%,-0.3%,-6,1%,COc1ccc(/C=C/c2nc(N)nc(-c3ccccc3O)n2)cc1OC
-42%,?,2,?,Cc1ccc2nc(-c3sc4nc(C)cc(C)c4c3N)[nH]c2c1
3%,-1.2%,6,-2%,O=C(CSc1ncnc2ccccc12)Nc1cccc(S(=O)(=O)N2CCOCC2)c1
.,-0.4%,.,-4%,CN(CC(=O)Nc1ccc(Cl)c(C(F)(F)F)c1)C(=O)CCCNC(=O)c1ccc(Cl)cc1
-1%,1.1%,9,10%,O=C(Nc1ccc(F)c(Cl)c1)C1CC(=O)n2c(nc3ccccc32)N1 (stereo not given)
0%,-5.2%,11,?,COc1cccc(NC(=O)C2C3C=CC(O3)C2C(=O)NCc2cccnc2)c1 (stereo not given)
.,-1.9%,.,4%,COc1ccc(C(=O)CC(=O)c2ccccc2)cc1
-10%,-4.5%,5,3%,c1ccc2c(c1)OCc1cn[nH]c1-2
-52%,0.1%,.,9%,CC(=O)N/N=C(/C)c1ccc(NC(=O)c2csc(C)c2C)cc1
.,-6.6%,0,-6%,Cc1ccccc1/C=C/C1=NCCN1
-6%,-5.4%,.,23%,Cc1nn(C)c2ncc(C(=O)c3ccccc3O)cc12
-16%,-0.3%,1,8%,Cc1cc(/C=N/NC(=O)CC2(C)OCCO2)c(C)n1-c1cc(Cl)cc(Cl)c1
-30%,3.1%,-1,5%,Fc1ccccc1CSc1nncn1NCc1cccs1
14%,-1.8%,.,-14%,CC(=O)c1ccc(NC(=O)CSc2ccc(-c3sc(C)nc3C)nn2)cc1
-5%,-3.1%,2,7%,C[C@@H]1C=C(C(=O)N2CCN(C)CC2)O[C@H](OCc2ccc(CO)cc2)C1
.,-1.2%,.,0%,COc1ccccc1C(O)(c1ccccc1)c1ccccc1OC
0%,0.4%,10,5%,Nc1ccc(C(=O)N(CCO)CCO)cc1
-8%,-4.0%,-17,0%,COc1ccc(C2(CNC(=O)c3cccc([N+](=O)[O-])c3)CCOCC2)cc1
-2%,0.0%,8,14%,Cn1c(SCC(=O)Nc2ccc(Br)cc2F)nnc1-c1ccco1
-1%,5.4%,.,-1%,COC(=O)C1[C@H]2C(=O)N(Cc3cccs3)C[C@]23C=C[C@H]1O3 (stereo not given in full)
-13%,-1.2%,-4,-3%,COc1cc([N+](=O)[O-])ccc1NC(=S)Nc1cc(C(=O)OC(C)C)cc(C(=O)OC(C)C)c1
-25%,?,?,?,CCc1cc(=O)n2c([nH]c3ccccc32)c1C#N
.,8.6%,.,3%,CCc1ccccc1OCC(=O)OCC(=O)Nc1cc(C)on1
.,-0.1%,.,-7%,Cc1n[nH]c(=O)c2c(NC(=O)COC(=O)Cc3c(F)cccc3Cl)oc(C)c12
-3%,0.0%,-2,-4%,CSc1nc2ccccc2cc1/C=C(\C#N)c1ccc(Cl)c(Cl)c1
-6%,-3.6%,4,8%,COc1ccc(-c2nnc(NC(=O)CSc3ccccc3)s2)cc1OC
0%,-1.8%,-1,-1%,Cc1ccc(CNC(=O)CCCn2c(=O)c3ccccc3n(CC(=O)NCc3ccco3)c2=O)cc1
0%,-0.7%,0,4%,CCOC(=O)C1CCN(Cc2cn[nH]c2-c2ccc(C)cc2)CC1

In the list so far, 10 contain a thiophene ring, fused or not:
miR-21 FLuc,Rango-impB inh,GLA inh pH 4.5,Rango dissoc inh,SMILES
-1%,0.6%,4,-10%,O=C(CNC(=O)c1cccs1)OCC(=O)c1ccccc1Cl
21%,1.7%,-9,11%,CCCCn1c(=N)n(CC(=O)c2ccc(Br)s2)c2ccccc21
-5%,?,0,?,N#Cc1c(Nc2cccc(F)c2)sc2c(O)cc(=O)[nH]c12
-3%,0.8%,-4,6%,CN(C)N1C(N)=C(C#N)C(c2ccsc2)C2=C1CCCC2=O (stereo not given)
-31%,-5.4%,-13,14%,O=C(OCC(=O)c1cccs1)c1ccccc1
0%,2.2%,-9,28%,CCc1cc(C(=O)c2ccccc2OC)c(N)s1
-42%,?,2,?,Cc1ccc2nc(-c3sc4nc(C)cc(C)c4c3N)[nH]c2c1
-52%,0.1%,.,9%,CC(=O)N/N=C(/C)c1ccc(NC(=O)c2csc(C)c2C)cc1
-30%,3.1%,-1,5%,Fc1ccccc1CSc1nncn1NCc1cccs1
-1%,5.4%,.,-1%,COC(=O)C1[C@H]2C(=O)N(Cc3cccs3)C[C@]23C=C[C@H]1O3 (stereo not given in full)
